AID504770 – E. coli YBA685 growth inhibition, screen for V. cholerae RctB inhibitors; E. coli YBA685 rctB-dependent plasmid, OD600 growth, 3 h; stronger effect = lower value; z-score (no concentration beside the values); 130,000 compounds, 0.27% hits;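 active = z-score under -2 on both plates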;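 also: wells of about 30 µL received 100 nL stock; score is relative to mean and SD of the test wells; the first replicate is given; strong numbers were not always called active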
CapD inh – CapD enzyme inhibition; purified CapD enzyme, fluorescence intensity read-out; stronger effect = lower value; some hits fall short of the stated cut; z-score (test concentration not listed); 140,000 compounds, 0.23% hits;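 active = z-score under -4 in either of two replicates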;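 also: stock transfer was 100 nL into about 40 µL; score is relative to mean and spread of the plate; one replicate is shown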
The depositor's hits bear a star; · = not tested or not shown; & = joins results of further samples. Random draw from the library, and some 0.39% of all compounds hit somewhere here.

SMILES	AID504770	CapD inh
COc1ccc(S(=O)(=O)Nc2cc(S(C)(=O)=O)ccc2-c2cnn(C(C)C)c2)cc1	·	5.1
Cc1ccc(-c2csc3nc(-c4cccc(Br)c4)oc(=O)c23)cc1	·	-0.18
COc1cccc(NC2OC(=O)c3ccccc32)c1 (configuration not stated)	0	·
CCCn1c(O)c(C=Nc2ccccc2C(=O)NC2CC2)c(=O)[nH]c1=S	0.25	·
Cc1ccc(NC(=O)NCc2noc3ccccc23)nc1	-0.55	-0.38
COc1cccc(C2C(C(=O)O)c3ccccc3C(=O)N2C)c1 (configuration not stated)	·	0.34
CCOC(=O)CSC1=C(C#N)C(c2ccccc2C)C2=C(CCCC2=O)N1 (configuration not stated)	-0.95	2.9
COc1cc(-c2c(C#N)c(C)nc3c2C(=O)c2ccccc2-3)cc(OC)c1OC	·	-0.23
O=c1c2ccccc2nnn1CN1CCCCC1	-0.65	21
OCCCn1c(-c2ccccc2)cn2c(-c3ccccc3)c(-c3ccccc3)nc12	0.3	60
N#Cc1c(N2CCCC2)ccc(Br)c1Cl	1.8	0.56
O=C(NCc1ccco1)c1ccc2c(c1)N(Cc1c(F)cccc1Cl)C(=O)CS2	-0.15	0.2
O=C(NC1CCCCNC1=O)c1cn(S(=O)(=O)c2ccccc2)c2ccccc12 (configuration not stated)	0.05	0.24
O=C(COC(=O)C1CCC1)Nc1cccc(Cl)c1Cl	-0.4	0.34
CCOC(=O)C1=NN(c2ccc(Br)cc2)C2(S1)c1ccccc1C(c1ccccc1)=NN2c1ccccc1 (configuration not stated)	·	-0.26
O=C(NNC(=O)c1cc(Cl)ccc1Cl)OCCc1ccccc1Cl	·	-1.2
O=C(Nc1ccncc1NC(=O)c1ccccc1)c1ccccc1	0.05	0.33
O=C(Nc1cccc(Cl)c1Cl)NC1CC1	0.55	-0.3
CS(=O)(=O)c1scc(-c2ccccc2Cl)c1C#N	-0.6	0.025
O=C(Oc1ccc(F)cc1)N1CCOCC1	-0.7	·
O=C(Cc1ccc(F)c(F)c1)N1CCN(S(=O)(=O)c2ccc(Cl)cc2Cl)CC1	·	0.3
N#CCSc1nnc(-c2ccc(Cl)cc2Cl)n1N	-0.75	·
CC(C)(C)NC1=CC(=O)OC12CCCCC2	-0.55	-0.025
CCc1ccccc1N1C(=O)C2C(c3ccccc3Cl)OC3(C(=O)c4ccccc4C3=O)C2C1=O (configuration not stated)	·	0.44
O=C(c1ccc(-n2nc(C(F)(F)F)c3c2CCCC3)cc1)N1CCOCC1	-0.15	-0.05

Four entries out of the list, ordered by molar mass, high to low.
SMILES	AID504770	CapD inh
O=C(NCc1ccco1)c1ccc2c(c1)N(Cc1c(F)cccc1Cl)C(=O)CS2	-0.15	0.2
OCCCn1c(-c2ccccc2)cn2c(-c3ccccc3)c(-c3ccccc3)nc12	0.3	60
N#Cc1c(N2CCCC2)ccc(Br)c1Cl	1.8	0.56
O=c1c2ccccc2nnn1CN1CCCCC1	-0.65	21

Taken from above.
Reading for N#CCSc1nnc(-c2ccc(Cl)cc2Cl)n1N under AID504770: -0.75
Reading for CCc1ccccc1N1C(=O)C2C(c3ccccc3Cl)OC3(C(=O)c4ccccc4C3=O)C2C1=O (configuration not stated) under CapD inh: 0.44

Profiles, looked up by structure. Order of screens: AID504770	CapD inh
CS(=O)(=O)c1scc(-c2ccccc2Cl)c1C#N in the list: -0.6	0.025
O=C(NCc1ccco1)c1ccc2c(c1)N(Cc1c(F)cccc1Cl)C(=O)CS2 in the list: -0.15	0.2

Additional structures:
SMILES	AID504770	CapD inh
O=C(N/N=C1\CCCCc2ccccc21)c1cccnc1	0.5	·
Cc1noc2nc(C(F)(F)F)cc(C(F)(F)F)c12	-0.2	·
O=C(CSc1nc2ccccc2nc1N1CCOCC1)NCc1ccc2c(c1)OCO2	-0.2	1.3
CCCN1CCC(NCc2ccco2)CC1	0.45	0.63
O=C(CN1CCc2ccccc2C1)NC1CCCC1	0.2	1.1
O=C(O)c1ccc(C(=O)O)c(C(=O)O)c1	1.7	0.025
Cc1cc(-c2ccccc2)nnc1-c1ccccc1	-0.6	5.1
CCC(=O)N1c2c(C)cc(C)cc2C(=C2SC(C(=O)OC)=C(C(=O)OC)S2)C(=S)C1(C)C	·	1.1
CCN1CCN(CCCNC(=O)CC2Oc3ccc(C)cc3NC2=O)CC1 (configuration not stated)	-1.2	-0.81
COc1ccc(NC(=O)CSc2nc3ccccc3[nH]2)c(OC)c1	-0.1	-0.6
CC(=O)Nc1ccccc1OCC(=O)N(Cc1ccccc1)C(C)C	3.6	·
Cc1ccc(S(=O)(=O)N(CCO)Cc2cc3cc(C)c(C)cc3[nH]c2=O)cc1	0.15	·
CCn1c(C)c(C)c2cc(C(=O)NCCCN3CCCC3)ccc21	-0.2	-0.48
CC(C)c1ccc(OCc2nnc(SCC(=O)NC3CCCCC3)o2)cc1	-0.2	0.32
CCOC(=O)N1CCN(C(=O)CN(c2ccc(OC)c(Cl)c2)S(=O)(=O)c2ccc(C)cc2)CC1	·	-0.18
CCN1CCN(c2cc(C)c3cc(NC(=S)N(C)Cc4ccccc4)ccc3n2)CC1	1.5	-2.3
N#Cc1ccc(-c2ccccc2)[nH]c1=O	-0.9	37
CS(=O)(=O)N1CCCc2cc(C(=O)NC3CCCCCCC3)ccc21	0.65	-0.18
CCC(=O)N1CCc2cc(Br)cc(S(=O)(=O)N3CCCCC3CC)c21 (configuration not stated)	-0.75	0.13
CCn1c(CSc2nc(C)cc(C)n2)nnc1SCc1ccccc1	1.2	·
CNS(=O)(=O)c1cccc(C(=O)OCC(=O)N2CCc3ccccc32)c1	0.15	·
Nc1ccc(S(=O)(=O)c2ccc(N)cc2)cc1	0	-0.16&0.1
CC(=O)Nc1ccc(S(=O)(=O)NC2Cc3ccccc3C2)cc1	·	-0.18
CC1(C)CC(=O)C(C(C2=C(O)CC(C)(C)CC2=O)c2ccccc2)=C(O)C1	-0.2	·
CCOc1cc(N2CCOCC2)c(OCC)cc1NC(=O)c1cc(S(=O)(=O)N(C)C)ccc1Cl	0.5	·
Further records
SMILES	AID504770	CapD inh
COc1cc(OC)cc(-c2nnc(SCC(=O)N=c3sccn3Cc3ccccc3Cl)o2)c1	0.35	·
O=C(Nc1ccccc1)C1CCCN(S(=O)(=O)c2ccccc2)C1 (configuration not stated)	0.75	-0.08
Cc1ccc2c(c1Br)C1(C(=O)N2)C(C#N)=C(N)Oc2n[nH]c(-c3ccc(F)cc3)c21 (configuration not stated)	·	-0.36
Cc1cc(C)nc(SCC(=O)Nc2c(C)n[nH]c2C)n1	1.3	-0.15
CN1CCN(S(=O)(=O)c2ccc(-c3cc(C(F)(F)F)on3)s2)CC1	-0.55	0.48
O=C(c1cc(C2CC2)nn1-c1ccccc1)N1CCN(S(=O)(=O)c2ccc(F)cc2)CC1	-0.25	·
Cc1cc(S(=O)(=O)Cc2ccc(N)cc2)c(C)cc1Cl	-0.7	-0.58
CCN(CC)CC(=O)NN1CC(=O)N(c2cccc(Cl)c2)CC1=O	0.15	-0.15
CCC(C(=O)Nc1cc(OC)ccc1OC)n1nnc(C(=O)OC)c1C(=O)OC (configuration not stated)	-0.6	-0.53
CCN(CC)CCCNc1ncnc2c1cnn2-c1ccc(C)cc1	-0.75	0.76
CC(=O)Nc1ccc(C(=O)NCC2CCCCC2O)cc1 (configuration not stated)	·	-0.36
CC1=C(C(=O)OC2CCCCCCC2)C(c2ccccc2Br)NC(=O)N1 (configuration not stated)	·	-0.36
COCCNC(=O)c1ccc2c(=O)n(Cc3ccco3)c(SCC(=O)Nc3ccccc3Cl)nc2c1	·	1.7
c1ccc(Nc2nc(NCc3ccco3)nc(Nc3ccccc3)n2)cc1	·	0.83
O=C(NC1CCCCCC1)c1cnc2n(c1=O)CCS2	-0.55	·
COC(=O)c1ccc(CSc2nc3c(cnn3-c3ccc(C)cc3)c(=O)[nH]2)o1	·	-0.095
Cc1nc2ccccc2nc1CSc1nc2ccccc2o1	-0.4	·
COc1ccc2nc(SCC(=O)Nc3cccc(NC(C)=O)c3)[nH]c2c1	·	-0.32
CCc1ccc(NC(=O)c2cnn3ccccc23)cc1	-1.3	0.015
CCC(C)NC(=O)Cn1c2ccccc2c2cn[nH]c(=O)c21 (configuration not stated)	-0.1	18
C=CCN1C(CC(=O)Nc2cccc(Cl)c2)C(=O)NC2CCCCC21 (configuration not stated)	0.15	·
COc1ccc(C(OCC2OC(n3ccc(NC(=O)c4ccccc4)nc3=O)C(O[Si](C)(C)C(C)(C)C)C2O)(c2ccccc2)c2ccccc2)cc1 (configuration not stated)	·	6.3
CCCNCC(=O)Nc1cc(Cl)ccc1Cl	0.45	·
CCOC(=O)C1=NN(c2ccc(C)cc2)C2C(=O)N(c3ccccc3[N+](=O)[O-])C(=O)C12 (configuration not stated)	·	0.01
Cc1onc(-c2ccccc2Cl)c1C(=O)NC(=S)N1C(C)CCCC1C (configuration not stated)	·	-1.4
Later entries.
SMILES	AID504770	CapD inh
OC/C=C/C=C/c1ccc(F)cc1	-0.55	0.36
O=C(OCC1CCCCN1Cc1cc2c(cc1[N+](=O)[O-])OCO2)N1CCN(c2cccc3[nH]ccc23)CC1 (configuration not stated)	·	-0.98
COC(=O)C1=C(C)N=C2SCCC(=O)N2C1c1ccccc1 (configuration not stated)	2	-1.6
COc1ccc(C2CC(=O)NC(SCC(=O)Nc3ccc(Br)cc3)=C2C#N)cc1OC (configuration not stated)	·	0.05
COc1ccc2c(c1)cc1n2CCN=C1NCCO	-0.75	7
C=CCNC(=O)c1scc2c1OCCO2	-0.6	0.28
C=CCn1c(=S)[nH]c2ccc(Cl)cc2c1=O	0.55	·
CCCn1c(SCC(=O)C23CC4CC(CC(C4)C2)C3)n[nH]c1=O	0.45	·
CCOC(=O)c1ccc2nc(NC(=O)C(C)C)sc2c1	-0.2	-0.06
Cc1ccc(OC(=O)CCC(=O)Nc2ccc(S(N)(=O)=O)cc2)cc1	-0.45	-0.23
OC1(c2cccs2)CN(c2ccccc2)C2=[N+]1CCCS2 (configuration not stated)	0	-0.17
CCOc1cc2c(c([N+](=O)[O-])c1)NC(c1ccc(Br)cc1)C1CC=CC21 (configuration not stated)	·	-0.52
COc1ccc(C2=NNC(=S)C3=CNc4ccccc4N32)cc1	0.85	-1.6
CN(C(=O)c1ccc2c(Cl)c3c(nc2c1)CCC3)c1ccccc1	0.5	0.65
CSc1cccc(NC(=S)Nc2cccc(SC)c2)c1	0.5	-0.45
Cc1[nH]c2ccccc2c1C(=O)C(C)N1CCN(C/C=C/c2ccccc2)CC1 (configuration not stated)	-0.85	·
COc1cc(Cl)c(NS(=O)(=O)c2ccc3c(c2)CC(C)N3C(C)=O)c(OC)c1 (configuration not stated)	0.2	-0.07
CCc1nn(CC(=O)NC)c(=O)c2cc3occc3n12	-0.95	-0.6
CCn1c(C(=O)O)c(CC(=O)Nc2ccc(C)cc2Br)c2ccccc21	·	-0.5
Cc1cc(C)n(-c2nnc(C)n2/N=C/c2ccc(Br)cc2)n1	·	-0.75
Oc1ccc(Cl)cc1C=Nc1cccc2nsnc12	-1.2	-1.5
Cn1c(=O)c2ccccc2n2c(CCC(=O)N3CCc4ccccc4C3)nnc12	-0.05	15
COc1ccc(-c2cn3c4c(=O)n(C)c(=O)n(C)c4nc3n2-c2ccc(C)cc2)cc1	·	-0.24
CC(C(=O)c1ccccc1)C1(O)C(=O)N(Cc2ccc(Cl)cc2)c2ccccc21 (configuration not stated)	·	0.1
CCOc1ccc(NC(=O)CSC2=NCCS2)cc1	-0.25	2.7
Further results
SMILES	AID504770	CapD inh
CCOC(=O)C1CCCN(C/C=C/c2ccccc2)C1 (configuration not stated)	1.6	0.14
COc1ccc(NC(=O)c2c(NC(=O)c3cccc(C)c3)sc3c2CCCCC3)cc1	·	0.14
N#C/C(=N\O)S(=O)(=O)c1ccc(Cl)cc1	·	-0.42
O=C(O)CCNC(=O)c1ccc2c(c1)OCCO2	-0.45	-0.12
COc1ccc(-c2nnc(SCC(=O)OC3CC(C)CCC3C(C)C)o2)cc1 (configuration not stated)	0	·
CC(C)(C)OC(=O)CSc1nc2c(c(-c3cccs3)c1C#N)CCC2	·	2
CCN(C(=O)CSc1nnc(C)s1)c1ccccc1	-1	-0.45
CCCN(CC1CC1)Cn1ncn(-c2ccccc2)c1=S	-0.4	·
c1ccc(-c2nc(-c3cccs3)no2)cc1	0.9	-0.2
CC1=CC(C)C2C(=O)N(c3ccc(C(=O)O)cc3)C(=O)C2C1 (configuration not stated)	0	0.28
Cc1ccccc1Nc1nc(N)nc(-c2cc3ccccc3o2)n1	-0.2	-0.42
Cc1ccc(N2CCN(c3ccccc3)CC2)nn1	-0.55	-0.32
CCOCc1cnc(C)nc1NCC(=O)c1c(C)[nH]c2cc(C)ccc12	1.6	-1.1
CC(C)S(=O)(=O)c1cnc(COc2ccc(C(C)(C)C)cc2)nc1N	0.35	-0.21
CN1CCN(S(=O)(=O)c2ccccc2C(F)(F)F)CC1	-0.3	·
O=C(N/N=C/c1ccc(OC2CSC2)cc1)c1ccncc1	0.25	0.17
CC(OCc1ccccc1)C(NC(=O)OC(C)(C)C)C(N)=O (configuration not stated)	·	-0.46
CCCCN(C)C(=O)C1(c2ccc(OC)cc2)CCOCC1	1.4	-0.25
N#CCCSc1ccccc1N=Cc1ccccc1O	·	0.29
O=C(O)c1cccc(NC2SC(=O)N(c3ccccc3)C2=O)c1 (configuration not stated)	1.9	·
COC(=O)c1ccc(-c2ccco2)n1Cc1nc(-c2cccc(Cl)c2)oc1C	1.2	0.48
CCOc1ccc(C2Oc3nc(SC)nnc3-c3ccccc3N2C(=O)CC)cc1 (configuration not stated)	0.1	-1.2
Cc1ccc(/C(=N\O)c2oc3c(C)c4oc(=O)cc(C)c4cc3c2C)cc1	·	0.9

Four entries drawn at random from the list so far, as already listed:
SMILES	AID504770	CapD inh
N#C/C(=N\O)S(=O)(=O)c1ccc(Cl)cc1	·	-0.42
COc1ccc(-c2nnc(SCC(=O)OC3CC(C)CCC3C(C)C)o2)cc1 (configuration not stated)	0	·
CCOCc1cnc(C)nc1NCC(=O)c1c(C)[nH]c2cc(C)ccc12	1.6	-1.1
CN1CCN(S(=O)(=O)c2ccccc2C(F)(F)F)CC1	-0.3	·
